# Assay outcomes deposited in PubChem BioAssay by Broad Institute.
# Ecoli rRNA inh – inhibitors of bacterial rRNA selective over humanized ribosomes; E. coli WT GFP vs humanized-ribosome RFP mutants, fluorescence, 24 h; stronger effect = lower value; DMSO median 0, no signal -100; GFP signal change (wild-type ribosome), % (no concentration beside the values); AID 720706; 350,000 compounds, 1.6% hits;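 active = significant combined selectivity score with lowered wild-type GFP, culture density cut under 30%, mutant RFP and density less affected; inactive = any of these conditions unmet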; also: one replicate is shown; some compounds called inactive have numbers as strong as hits
# Ecoli rRNA inh OD600 – further read-out of Ecoli rRNA inh, marked with its call; OD600 change, %; measured here: OD600 growth;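 optical density of the mix in the first replicate; 0 = DMSO median and -100 = no signal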
# Ecoli rRNA inh RFP – recorded beside Ecoli rRNA inh, whose call it bears; RFP signal change, %; measured here: RFP humanized mutant strains;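 first replicate; 0 = DMSO median and -100 = no signal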
# * hit, by the source's call; & = joins results of further samples.
Compound | Ecoli rRNA inh | Ecoli rRNA inh OD600 | Ecoli rRNA inh RFP
C[C@H](CO)N1C[C@H](C)[C@@H](CN(C)Cc2ccc3c(c2)OCO3)Oc2ccc(NC(=O)Cn3cnnn3)cc2CC1=O | 0 | 0 | -0.7
CCC(=O)Nc1ccc2c(c1)C(=O)N(C)[C@H]1CC[C@@H](CC(=O)NCCCN(C)C)O[C@H]1CO2 | 0 | -1 | -1.3
CC1CC(C)CN(S(=O)(=O)c2ccc(C(=O)OCC(=O)Nc3ccccc3)cc2)C1 (stereo unspecified) | 7 | 12 | -1.1
COc1cccc(NC(=O)Nc2ccc3c(c2)C(=O)N(C)[C@@H]2CC[C@H](CC(=O)O)O[C@H]2CO3)c1 | 5 | 10 | -3.6
C[C@@H]1CN([C@@H](C)CO)C(=O)c2cc(NS(=O)(=O)c3ccccc3)ccc2O[C@@H](C)CCCCO[C@@H]1CN(C)C(=O)CCC(F)(F)F | -2 | 2 | -1.8
CC1(C(=O)NCc2ccc(Cl)cc2)CCN1C(=O)c1cccc(F)c1 (stereo unspecified) | 4 | 9 | -0.5
COc1ccc(-c2ccc(CN3C(CC(C)C)C(=O)N(Cc4cn(CC5CCCCC5)nn4)CCS3(=O)=O)cc2)cc1 (stereo unspecified) | 4 | -5 | -5.1
COc1ccccc1-c1cn(CC[C@H]2CC[C@H](NC(=O)c3ccccc3F)[C@H](CO)O2)nn1 | 0 | -4 | -1.7
COc1ccc(S(=O)(=O)Nc2ccc3c(c2)C(=O)N([C@@H](C)CO)C[C@@H](C)[C@H](CN(C)C(=O)Nc2c(C)noc2C)OCCCC[C@@H](C)O3)cc1 | 0 | 4 | 2.3
Cc1noc(C)c1S(=O)(=O)N(C)C[C@@H]1Oc2ccc(NC(=O)Nc3ccc4c(c3)OCO4)cc2CC(=O)N([C@H](C)CO)C[C@H]1C | -3 | -9 | 0.1
CCCC(=O)OC[C@H]1CN([C@H](C)c2ccccc2)S(=O)(=O)c2c(F)cccc2O1 | 1 | -2 | 3.3
CCNC(=O)[C@@H]1[C@@H](CO)[C@@H]2Cn3c(ccc(-c4ccccc4)c3=O)[C@H]1N2C(=O)c1ccccn1 | 2 | 1 | -4.9
Cc1cc(Br)c2c(c1)[C@](O)(c1cn(C)c3ccccc13)C(=O)N2C | -11 | -36 | -2.9
CO[C@H]1CN(C)C(=O)c2ccc(NS(C)(=O)=O)cc2OC[C@H](C)N(C)C[C@H]1C | 1 | 2 | -2.2
Cc1noc(C)c1S(=O)(=O)Nc1ccc2c(c1)C(=O)N([C@@H](C)CO)C[C@H](C)[C@@H](CN(C)S(=O)(=O)c1cn(C)cn1)OCCCC[C@@H](C)O2 | 1 | -4 | -2.3
CO[C@H]1CN(C)C(=O)c2ccc(NC(=O)C3CCCCC3)cc2OC[C@H](C)N(Cc2nccs2)C[C@H]1C | -9 | -4 | 1.2
Cc1noc(C)c1S(=O)(=O)Nc1ccc2c(c1)C(=O)N([C@H](C)CO)C[C@H](C)[C@@H](CN(C)C(=O)c1ccncc1)OCCCC[C@@H](C)O2 | 3 | 5 | -0.1
C[C@@H]1CN([C@H](C)CO)C(=O)c2cccc(NS(=O)(=O)c3cn(C)cn3)c2O[C@H]1CN(C)CC1CC1 | 3 | -2 | -1.7
CC(C)NC(=O)Nc1ccc2c(c1)CC(=O)N([C@H](C)CO)C[C@H](C)[C@@H](CN(C)C(=O)Nc1ccc(C(F)(F)F)cc1)O2 | 0 | 6 | -1.6
COc1cccc(NC(=O)N(C)C[C@H]2Oc3cc(/C=C/c4ccccc4)ccc3S(=O)(=O)N([C@@H](C)CO)C[C@H]2C)c1 | -3 | 9 | -4.4
C[C@H]1CN([C@@H](C)CO)C(=O)c2cc(NC(=O)C3CCCCC3)ccc2O[C@@H]1CN(C)C(=O)Nc1ccc(F)cc1 | 2 | 1 | 1.8
O=C(C1CC1)N1CC(=O)N2[C@H](CO)[C@@H](c3ccc(-c4cccnc4)cc3)[C@@H]2C1 | 1 | 19 | -4.6
COc1ccc(C#Cc2ccc3c(c2)O[C@@H](CN(C)C(=O)Nc2cccc(OC)c2)[C@@H](C)CN([C@@H](C)CO)S3(=O)=O)cc1 | -1 | -3 | -0.5
Cc1noc(C)c1S(=O)(=O)N(C)C[C@H]1OCCCC[C@@H](C)Oc2ccc(NC(=O)C3CCCCC3)cc2C(=O)N([C@H](C)CO)C[C@H]1C | 0 | 1 | 0.7
C[C@@H]1CN([C@H](C)CO)S(=O)(=O)c2ccc(-c3cccc(C#N)c3)cc2O[C@H]1CN(C)C(=O)c1ccccc1 | -12 | -28 | 3.1
COc1ccc(CNC(=O)N(C)C[C@H]2OCc3ccccc3-c3ccccc3C(=O)N([C@H](C)CO)C[C@H]2C)cc1 | 1 | -3 | -2.6
CN1CCN(C(=O)[C@@H]2[C@@H](CO)[C@@H]3Cn4c(ccc(-c5ccncc5)c4=O)[C@@H]3N2CC2CC2)CC1 | 1 | 3 | -1.2
C[C@H](CO)N1C[C@H](C)[C@H](CN(C)S(=O)(=O)c2cccs2)Oc2c(NC(=O)Nc3ccc(F)cc3)cccc2C1=O | -8 | -16 | 3.3
COC(=O)CC1N(S(=O)(=O)c2ccc(C)cc2)c2ccccc2C1(C(=O)OC)C(=O)OC (stereo unspecified) | -18 | -35 | 1.8
C[C@H](NC(=O)[C@H]1[C@H](CO)[C@H]2Cn3c(cccc3=O)[C@H]2N1S(C)(=O)=O)c1ccccc1 | 1 | 3 | -3.8
COc1ccccc1S(=O)(=O)N[C@@H]1C=C[C@H](CC(=O)NCc2cc(F)cc(F)c2)O[C@H]1CO | 2 | 8 | 0.3
COc1ccc(NC(=O)Nc2ccc3c(c2)C(=O)N([C@@H](C)CO)C[C@H](C)[C@@H](CN(C)S(C)(=O)=O)OCCCC[C@@H](C)O3)cc1 | 0 | 4 | -0.8
C[C@H]1CN([C@@H](C)CO)C(=O)c2cc(Br)cnc2O[C@H]1CN(C)Cc1ccncc1 | 3 | 9 | -3.5
C[C@@H]1CN([C@@H](C)CO)C(=O)Cc2cc(NC(=O)Cn3cnnn3)ccc2O[C@@H]1CN(C)CC1CC1 | 5 | 3 | -0.2
Cc1ccc(S(=O)(=O)NC(=O)C2(C)CCN2C(=O)C2(c3ccc(Cl)cc3)CCC2)nc1 (stereo unspecified) | -1 | 8 | -1.4
N#C[C@@H]1[C@H](c2ccc(-c3ccccc3F)cc2)[C@@H](CO)N1C(=O)C1CC1 | 1 | 0 | 0.4
COc1cccc(C#Cc2ccc3c(c2)O[C@H](CN(C)C(=O)CN2CCOCC2)[C@H](C)CN([C@@H](C)CO)S3(=O)=O)c1 | 0 | -6 | 6.1
N#C[C@H]1[C@@H](c2ccccc2-c2cccc(F)c2)[C@@H](CO)N1C(=O)C1CCOCC1 | 2 | -7 | 2.0
Cc1cccc(-c2ccc([C@@H]3[C@H](CO)N4CCCCN(S(=O)(=O)c5ccccc5C)C[C@@H]34)cc2)c1 | -43* | -24* | 15*
CN1C(=O)c2cc(NC(=O)c3ccc(Cl)cc3)ccc2OC[C@@H]2O[C@H](CC(=O)O)CC[C@@H]21 | -2 | -2 | -2.4
Cc1noc(C)c1S(=O)(=O)N(C)C[C@@H]1Oc2c(NC(=O)C3CCCCC3)cccc2C(=O)N([C@H](C)CO)C[C@@H]1C | -4 | -8 | -2.5
C[C@@H]1CCCCO[C@H](CN(C)C(=O)c2ccncc2)[C@H](C)CN([C@@H](C)CO)C(=O)c2cc(NS(=O)(=O)c3cn(C)cn3)ccc2O1 | 4 | 4 | 0.9
C[C@@H]1CN([C@H](C)CO)C(=O)c2cc(NS(=O)(=O)c3cccs3)ccc2O[C@H]1CN(C)C(=O)Nc1ccc(C(F)(F)F)cc1 | -13 | -13 | -0.7
N#CCCN(Cc1ccccc1)C(C(=O)NC1CCCCC1)c1cc2ccccc2o1 (stereo unspecified) | 3 | -1 | -5.9
C[C@@H]1CN([C@H](C)CO)C(=O)c2cc(C#CC3CC3)cnc2O[C@@H]1CN(C)C(=O)Nc1ccccc1 | 1 | 9 | -0.5
Cc1ccc(S(=O)(=O)Nc2ccc3c(c2)CC(=O)N([C@H](C)CO)C[C@H](C)[C@H](CN(C)S(=O)(=O)c2ccc(Cl)cc2)O3)cc1 | 4 | -4 | 1.3
CCCN(C)C[C@H]1Oc2ncc(C#CC3(O)CCCC3)cc2C(=O)N([C@H](C)CO)C[C@H]1C | 7 | 12 | -1.3
C[C@H](CO)N1C[C@H](C)[C@H](CN(C)CC2CCCCC2)Oc2ccc(NC(=O)Nc3ccccc3)cc2CC1=O | 3 | -11 | 6.4
CN(C)C1CN(Cc2cn(Cc3cccc(C(F)(F)F)c3)nn2)S(=O)(=O)C1 (stereo unspecified) | 1 | 6 | -5.7
CCCC#Cc1ccc([C@H]2[C@H]3CN(C(=O)c4ccccc4)CC(=O)N3[C@H]2CO)cc1 | 4 | 5 | 2.8
O=C(COC(=O)c1cc(Br)ccc1O)NCCC1=CCCCC1 | 14 | 11 | 6.7
O=C(CN1CCOCC1)N1CC2(C1)[C@@H](c1ccccc1)[C@@H](CO)N2Cc1ccc(F)cc1 | 3 | 1 | -1.1
CC(C)OC(=O)N(C)C[C@H]1OCc2ccccc2-c2c(n(C)c3ccccc23)C(=O)N([C@@H](C)CO)C[C@H]1C | 1 | -6 | -2.6
CCC(=O)N1C[C@@H](C)[C@H](OC)CN(C)C(=O)c2ccc(NC(=O)COC)cc2OC[C@H]1C | 1 | 6 | 0.2
C[C@@H]1CN([C@H](C)CO)C(=O)CCCn2nncc2CO[C@H]1CN(C)C | 9&1 | 16&2 | -2.1&-2.1
Cc1ccc(-c2ccc([C@H]3[C@H](CO)N4C(=O)CN(C(=O)Nc5ccc(F)cc5)C[C@@H]34)cc2)cc1 | -15 | -41 | 31
CCCC#Cc1ccc([C@H]2[C@@H](CO)N3C(=O)CN(C(=O)Nc4ccc(F)cc4)C[C@@H]23)cc1 | -18 | -54 | 19
C[C@H](CO)N1C[C@H](C)[C@H](CN(C)C(=O)Nc2ccc(F)cc2)Oc2c(NS(=O)(=O)c3ccccc3)cccc2C1=O | -5 | 7 | 1.9
C[C@@H]1CN([C@@H](C)CO)S(=O)(=O)c2ccc(-c3ccc(F)cc3)cc2O[C@@H]1CN(C)S(C)(=O)=O | -10 | -21 | 0.6
C[C@H]1CN([C@@H](C)CO)C(=O)c2cc(C3=CCCCC3)cnc2O[C@@H]1CN(C)C(=O)Nc1ccc(F)cc1 | -6 | -5 | 0.9

# Three records picked at random from those above:
Compound | Ecoli rRNA inh | Ecoli rRNA inh OD600 | Ecoli rRNA inh RFP
CN(C)C1CN(Cc2cn(Cc3cccc(C(F)(F)F)c3)nn2)S(=O)(=O)C1 (stereo unspecified) | 1 | 6 | -5.7
COc1ccc(NC(=O)Nc2ccc3c(c2)C(=O)N([C@@H](C)CO)C[C@H](C)[C@@H](CN(C)S(C)(=O)=O)OCCCC[C@@H](C)O3)cc1 | 0 | 4 | -0.8
C[C@@H]1CN([C@H](C)CO)C(=O)CCCn2nncc2CO[C@H]1CN(C)C | 9&1 | 16&2 | -2.1&-2.1

# Continued.
Compound | Ecoli rRNA inh | Ecoli rRNA inh OD600 | Ecoli rRNA inh RFP
COc1cccc(S(=O)(=O)N2CC[C@H]3[C@@H](CO)N(C)c4ccc(C#Cc5ccc(F)cc5)cc4[C@H]32)c1 | 0 | 24 | -5.5
C[C@H]1CN([C@@H](C)CO)S(=O)(=O)c2ccc(C3=CCCCC3)cc2O[C@@H]1CN(C)Cc1ccccn1 | -41 | -48 | 17
CCCN1C[C@H](C)[C@H](OC)CN(C)C(=O)c2ccc(NC(=O)c3ccccc3F)cc2OC[C@H]1C | 2 | 1 | -1.5
C[C@H]1CN([C@@H](C)CO)S(=O)(=O)c2ccc(-c3cccc(F)c3)cc2O[C@H]1CN(C)S(=O)(=O)c1ccc(F)cc1 | 0 | -5 | 21
Cn1c(=O)c2c(-c3ccccc3)n(-c3cc([N+](=O)[O-])ccc3O)cc2n(C)c1=O | 5 | 13 | 0.9
CC(=O)N(C)C[C@H]1Oc2ncc(C#Cc3ccccc3)cc2C(=O)N([C@@H](C)CO)C[C@H]1C | 2 | -2 | -4.7
O=C(C[C@@H]1CC[C@@H](NC(=O)c2ccncc2)[C@H](CO)O1)NCc1ccncn1 | 3 | -3 | -1.9
C[C@H](NC(=O)C[C@H]1CC[C@@H]2[C@@H](COc3ccc(NC(=O)C4CCOCC4)cc3C(=O)N2C)O1)c1ccccc1 | 3 | 2 | -2.4
C[C@@H]1CN([C@H](C)CO)C(=O)c2cc(NS(=O)(=O)c3cccs3)ccc2O[C@@H](C)CCCCO[C@H]1CN(C)Cc1ccncc1 | 0 | -1 | 2.6
COc1ccc(-c2cc(NC=O)c3ncc(-c4cccc(OC)c4)n3c2)cc1 | 0 | 0 | 3.4
N#Cc1cccc(NC(=O)c2cc(C3CCCCN3C(=O)c3cccs3)on2)c1 (stereo unspecified) | -7 | -13 | 1.9
C[C@@H]1CN([C@H](C)CO)C(=O)c2cccc(NC(=O)Nc3ccccc3)c2O[C@H]1CN(C)C(=O)Nc1ccc2c(c1)OCO2 | -1 | 3 | -3.2
C[C@@H]1CN([C@H](C)CO)C(=O)c2cc(NC(=O)c3ccncc3)ccc2O[C@@H]1CN(C)CC1CCCCC1 | 0 | 3 | -0.9
O=C(NCc1ccccc1)c1cc(C2COCCN2C(=O)c2ccc3c(c2)CCO3)on1 (stereo unspecified) | 4 | 4 | 3.0

# Exported field by field: two of the compounds above
> COc1cccc(S(=O)(=O)N2CC[C@H]3[C@@H](CO)N(C)c4ccc(C#Cc5ccc(F)cc5)cc4[C@H]32)c1
  Ecoli rRNA inh = 0
  Ecoli rRNA inh OD600 = 24
  Ecoli rRNA inh RFP = -5.5
> C[C@H]1CN([C@@H](C)CO)S(=O)(=O)c2ccc(C3=CCCCC3)cc2O[C@@H]1CN(C)Cc1ccccn1
  Ecoli rRNA inh = -41
  Ecoli rRNA inh OD600 = -48
  Ecoli rRNA inh RFP = 17

# Not all compounds are listed (hit frequency here may not be typical).
